# Screening results deposited in PubChem BioAssay by several laboratories.
# RGS16-Gao = RGS16-Galphao interaction regulator (human); binding response (% of control), % at 10 µM; AID 1441; 220,000 tested, 0.38% active; bead-based flow cytometry RGS16-Galphao binding, fluorescence; actives lie on both sides;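 active = below 25% or above 175%, edge rows of some plates excepted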;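 note: Galphao activated by GDP with aluminum fluoride before binding; 100% = wells without compound and 0% = beads without RGS; some results beyond the cut were filed as inactive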
# Target sequence (O15492 whole entry, looked up): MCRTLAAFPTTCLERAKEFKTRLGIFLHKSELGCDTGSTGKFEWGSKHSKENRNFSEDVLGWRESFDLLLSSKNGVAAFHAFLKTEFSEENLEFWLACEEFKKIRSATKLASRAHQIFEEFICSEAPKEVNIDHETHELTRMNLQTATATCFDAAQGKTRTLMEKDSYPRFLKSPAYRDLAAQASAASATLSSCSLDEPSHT
# Target sequence (P09471 whole entry, looked up): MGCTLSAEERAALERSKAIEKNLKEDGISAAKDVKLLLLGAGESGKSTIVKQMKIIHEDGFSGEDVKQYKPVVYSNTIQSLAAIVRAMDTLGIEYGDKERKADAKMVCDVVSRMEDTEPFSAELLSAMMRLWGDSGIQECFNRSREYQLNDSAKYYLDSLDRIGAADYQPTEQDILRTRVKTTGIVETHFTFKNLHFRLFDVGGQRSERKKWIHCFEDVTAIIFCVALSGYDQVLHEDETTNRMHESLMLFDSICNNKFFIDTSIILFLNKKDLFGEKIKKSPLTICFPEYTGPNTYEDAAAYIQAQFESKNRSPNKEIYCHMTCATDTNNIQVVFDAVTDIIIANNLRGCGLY
# PKD1 kinase inh = inhibitors of human PKD1 kinase. Q15139. PKD1 kinase fluorescence polarization assay. inhibition, %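 (about 10 µM by stock and volumes)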. 200,000 tested, 0.056% active. AID 797;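 active = inhibition of 50% or more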;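 note: controls were vehicle for no effect and a reference inhibitor for full effect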
# GALR2 ag = GALR2 (human) receptor agonism; activation, %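 (tested at 5 µM)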; GALR2-expressing cells, agonist activation read-out; AID 803; O43603; 140,000 tested, 0.48% active;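 active = above mean plus 3 SD of all compounds, about 5% in these data, not always enough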;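 note: 0% = vehicle buffer wells and 100% = reference agonist at full effect; tested in CHO reporter cells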
# Target sequence (O43603 whole entry, looked up): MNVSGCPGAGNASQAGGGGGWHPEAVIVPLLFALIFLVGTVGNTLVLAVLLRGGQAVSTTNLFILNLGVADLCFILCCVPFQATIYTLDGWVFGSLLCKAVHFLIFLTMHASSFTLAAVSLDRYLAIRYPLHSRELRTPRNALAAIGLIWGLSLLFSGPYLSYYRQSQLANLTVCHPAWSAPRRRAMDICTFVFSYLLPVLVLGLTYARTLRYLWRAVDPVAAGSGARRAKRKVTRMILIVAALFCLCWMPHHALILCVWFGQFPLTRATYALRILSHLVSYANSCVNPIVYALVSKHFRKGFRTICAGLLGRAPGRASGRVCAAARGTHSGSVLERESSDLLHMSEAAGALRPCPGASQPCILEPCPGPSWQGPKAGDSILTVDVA
# HSV augment = HSV replication enhancement; HSV replication augmentation in cells, fold increase; maximum fold increase; 220,000 tested, 0.005% active; AID 1956;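 active = peak rise of 1.5-fold or more in the series; inconclusive = self-fluorescent or not available for retest; tested in PC3 cells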;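 note: first round at 10 µM; read as green reporter fluorescence; hits show the peak of a series up to 25 µM; 1 = signal of infected wells without compound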
# INS promoter inh = TRM-6 insulin promoter activity inhibition | TRM-6 cells (human fetal islet line), insulin promoter-eGFP reporter, imaging; reporter expression induced with tamoxifen | inhibition, % at 2 µM | 130,000 tested, 0.9% active | AID 1273;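 active = inhibition above the mean plus 3 SD, with well images judged a real hit on visual review, cut at about 60% in these data, passing the limit was not always enough; inconclusive = inhibition over the cutoff but images rejected on review; inactive = inhibition not above the cutoff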
# INS promoter inh cell count = second read-out of INS promoter inh, no call of its own (marks repeat the call); normalized cell count, %; measured here: cell count, toxicity; reference of the scale not given here;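 cells exposed to compound for 48 h; stained nuclei by imaging scaled within each plate; lower means fewer cells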
# HSV augment primary fold = also measured in HSV augment; calls as there; fold increase; compound at 10 µM; measured here: primary screen fold increase 10 uM; tested in PC3 cells;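 GFP signal in the first replicate; 1 = infected wells without compound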
# * marks the source's active call; other numbers are inactive results; i = inactive; ? = inconclusive; / = no result given; [ ] = dose if it differs, or a comment. Rows are unselected; overall some 1.1% were active at least once.
SMILES,RGS16-Gao,PKD1 kinase inh,GALR2 ag,HSV augment,HSV augment primary fold,INS promoter inh,INS promoter inh cell count
COc1cccc(OC)c1C(=O)O/N=C(\N)c1ccncc1,98,/,/,i,0.86,/,/
CCN(CC)CCCNc1nc(-n2nc(C)cc2C)nc2sc3c(c12)CC(C)(C)OC3,94,/,/,i,0.95,/,/
O=C(CSc1nccc(=O)[nH]1)Nc1ccc(F)c([N+](=O)[O-])c1,103,-2,0.2,i,0.88,-11,122
CC(N)=Nc1ccc([N+](=O)[O-])cc1,93,-6,-0.8,i,0.95,/,/
COc1ccc(C(=O)C2CCCN(Cc3ccc(C#CCCO)cc3)C2)cc1F (stereo unspecified),96,-3,/,i,1,8,102
C/C(=N\NC(=O)C1(C)CC1(Br)Br)c1ccc([N+](=O)[O-])cc1 (stereo unspecified),96,-2,/,i,1,/,/
Cc1ccc(NC(=O)Cn2c(=O)n(CCC(=O)NC3CCN(Cc4ccccc4)CC3)c(=O)c3ccccc32)cc1,105,1,/,i,0.79,/,/
O=C(Cc1ccccc1)Nc1cccnc1,101,5,/,i,0.87,38,91
CCCC(=O)OCC(=O)Nc1ccc([N+](=O)[O-])cc1C#N,105,/,/,i,0.94,/,/
Cc1cc(C)n(CNc2nc(C(F)(F)F)cs2)n1,103,-3,-0.1,i,1,/,/
CCOC(=O)CN1C(=O)N[C@@H](c2ccc(Br)cc2)C(C(C)=O)=C1C,108,-2,0.1,i,1.1,-10,146
COc1ccc(C2C=C(c3ccccc3)Nc3nnnn32)cc1 (stereo unspecified),79,-5,-0.2,i,1.4,/,/
CCN(CC)CCCCCOc1ccccc1OC,105,-12,-2.6,i,1,-12,112
COc1ccc(NCCC#N)cc1,87,-5,-1.8,i,0.76,27,101
CNC(=O)CN(c1cc([N+](=O)[O-])ccc1OC)S(C)(=O)=O,44,-7,-1.9,i,0.94,24,71
COc1ccc(NC(=O)Nc2cccc3cccnc23)cc1,103,2,-1.5,i,0.84,/,/
COc1ccc(-c2nc3c(-c4ccc(Cl)cc4)cnn3cc2C)cc1F,105,2,/,i,1.1,/,/
Cc1cc(NC(=O)CCC(=O)N(CC(=O)NCC2CCCO2)Cc2ccc(F)cc2)no1 (stereo unspecified),104,-2,-2.8,i,0.98,29,91
CCC(=Nc1ccccc1OC)C1=C(O)CC(c2ccccc2)CC1=O (stereo unspecified),109,2,/,i,0.85,/,/
O=C(NNC(=S)Nc1ccccc1)C1CCCCC1,101,-2,/,i,1,-17,60
CC(C)(C)NC(=O)C(c1ccncc1)N(Cc1cccs1)C(=O)Cn1nnc(-c2cccs2)n1 (stereo unspecified),100,-9,-0.1,i,0.95,-14,128
Cc1cc(Nc2c(C)n(C)n(-c3ccccc3)c2=O)c2ccccc2n1,106,-7,-1.3,i,1,13,121
CCOC(=O)N1CCN(C(=O)c2cnc(Nc3ccccc3OC)c3ccccc23)CC1,107,-8,7.0*,i,0.74,-9,102
CC1=NN(c2ccc(C(=O)O)cc2)C(=O)/C1=C\c1ccc(OC(=O)c2cccs2)cc1,91,-2,/,i,1,/,/
Cc1nn(C)c(C)c1CNC(=O)c1cnn2c1NC(c1ccccc1)CC2C(F)(F)F (stereo unspecified),107,-7,-0.9,i,1,-91,164
Cc1cc(C(F)(F)F)nc(-n2cc(-c3ccccc3)nn2)n1,94,9,/,i,0.97,/,/
O=C(Cc1ccccc1)NN1C(=O)C2C3C=CC([C@@H]2C1=O)C31CC1 (stereo partly specified),99,-2,-2.0,i,0.99,/,/
CC(/C=N/NC(=O)CSc1n[nH]c(=O)[nH]c1=O)=C\c1ccccc1,103,/,/,i,1,/,/
CS(=O)(=O)N(CC(=O)N1CCCCCC1)c1ccc(Br)cc1,97,-8,0.0,i,0.79,26,50
Cc1ccc(CNC(=O)c2ccc3c(=O)[nH]c4c(C(=O)NCC5CCCO5)sc(=S)n4c3c2)cc1 (stereo unspecified),102,1,/,i,1,25,116
CCCCN(CCCC)C(=O)c1sc2nc(N3CCOCC3)c3c(c2c1N)CCCC3,98,/,/,i,0.96,/,/
COc1cc(/C=C/C(=O)OCC(=O)NCc2cccs2)ccc1OCC#N,100,-6,0.2,i,0.95,33,113
Cc1ccc2oc(-c3cccc(NC(=O)Cn4cnc5c(=O)n(C)c(=O)n(C)c54)c3)nc2c1,103,-3,/,i,0.85,-35,136
O=C(OCC(=O)N1CCc2ccccc21)c1ccc[n+]([O-])c1,109,-2,-0.1,i,0.98,10,147
CCOC(=O)c1c(C)n(C)c2ccc(OC)c(NC(=O)CN3CCSCC3)c12,100,-4,-1.0,i,0.82,-100,90
Cc1nnc(N/N=C/c2ccccn2)[nH]c1=O,99,/,/,i,0.6,/,/
CCOc1ccccc1NC(C)C(=O)Nc1cc(C(F)(F)F)ccc1N1CCOCC1 (stereo unspecified),92,0,-0.8,i,1.1,/,/
COc1ccc(N(C(=O)c2ccco2)C(C(=O)NC2CCCCC2)c2cccs2)cc1OC (stereo unspecified),39,-8,-0.4,i,1,-33,98
COC(=O)c1ccc(COc2ccc(C)cc2[N+](=O)[O-])o1,101,/,/,i,0.99,/,/
CCCCNC(=O)C1c2ccccc2C(=O)N(c2ccc(OC)cc2)C1c1ccc(OC)cc1 (stereo unspecified),83,-5,0.2,i,1.1,19,38
C=CCNC(=O)C(=O)c1cccn1-c1ccsc1C(=O)OC,98,-5,-3.4,i,0.87,0,53
Cc1ccccc1NC(=O)C1c2cccc[n+]2CC(=O)N1Cc1ccc2c(c1)OCO2 (stereo unspecified),104,-7,/,i,1,21,98
O=C(Cc1ccccc1)NCc1cccnc1,102,1,/,i,1.1,-15,119
CC(C)/C=C1\CC/C(=C\c2cccnc2)C1=O,100,4,/,i,0.62,-50,128
CC1(C)Cc2c(c(-c3ccccc3)nc(N3CCOCC3)c2C(N)=O)CO1,96,-13,-1.6,i,1,-31,95
N#Cc1c(/N=C/c2cccnc2)sc2c1CCCC2,103,/,/,i,1,/,/
CC/C(=N/Nc1ccc(Cl)cc1)c1cnnc(SC)n1,110,-6,0.4,i,0.99,19,105
COc1ccc(CNC(=S)N/N=C/c2ccncc2)cc1,105,-10,-0.8,i,1,14,88
COc1ccc(-c2[nH]ncc2/C=N\NS(=O)(=O)c2ccccc2)cc1OC,106,0,-2.7,/,/,1,140
CC(=O)c1c(C)oc2ccc(NS(=O)(=O)c3cccs3)cc12,5,7,/,i,0.99,/,/
Cc1cccc(NN=C2c3ccccc3-c3ccccc32)c1,83,3,-0.9,i,1.4,/,/
O=[N+]([O-])/C(C(Cl)=C(Cl)Cl)=C1\Nc2ccccc2O1,101,/,/,i,1,/,/
Cc1ccc(OCC(=O)Nn2cnnc2)c(Br)c1,102,1,-1.7,i,0.8,5,105
CCOC(=O)C1CCCN(C(=O)c2sc3nc(C)nc(N4CCOCC4)c3c2C)C1 (stereo unspecified),111,6,-1.7,i,0.88,/,/
COc1ccc(OC)c(C(=O)COC(=O)CNC(=O)C2CCCCC2)c1,102,-4,0.5,i,0.99,9,97
CC(C)(C)S(=O)(=O)c1cnc2c(-c3ccc(F)cc3)cnn2c1N,113,-5,-2.4,i,1,/,/
COc1ccc(-n2c3c(cc(C(=O)N4CCN(CCO)CC4)c2=O)C(=O)CC(C)(C)C3)cc1,108,-3,0.6,i,1.1,-59,158
COc1ccc(CC(=O)OCC(=O)NC(=O)NC2CCCCC2)cc1,101,4,-2.2,i,0.72,42,93
O=C(NCCCn1ccnc1)c1ccc(N2CCCCCC2)c([N+](=O)[O-])c1,97,-3,/,i,0.72,/,/
COc1cc(NC(=O)C(C)Oc2ccccc2)cc(OC)c1 (stereo unspecified),24,2,-0.9,i,1,19,86

# Whole records, quoted from the list.
# Results for CC(C)(C)S(=O)(=O)c1cnc2c(-c3ccc(F)cc3)cnn2c1N = RGS16-Gao = 113; PKD1 kinase inh = -5; GALR2 ag = -2.4; HSV augment = i; HSV augment primary fold = 1; INS promoter inh = /; INS promoter inh cell count = /
# Results for COc1cc(NC(=O)C(C)Oc2ccccc2)cc(OC)c1 (stereo unspecified) = RGS16-Gao = 24; PKD1 kinase inh = 2; GALR2 ag = -0.9; HSV augment = i; HSV augment primary fold = 1; INS promoter inh = 19; INS promoter inh cell count = 86

# The listing continues:
SMILES,RGS16-Gao,PKD1 kinase inh,GALR2 ag,HSV augment,HSV augment primary fold,INS promoter inh,INS promoter inh cell count
Cc1c2cnn(CC(=O)N3CCN(c4ncccn4)CC3)c(=O)c2c(C)n1Cc1ccc(F)cc1,112,-6,-2.2,i,0.94,/,/
CN1CCN(C2=C(Cl)C(=O)C(c3cnc(N4CCCCC4)s3)=C(Cl)C2=O)CC1,14*,2,-1.8,i,1,26,106
COC(=O)c1ccn(C(=O)c2ccc(Cl)cc2)n1,102,0,-0.6,/,/,-120,142
CCc1nnc(NC(=O)CSc2ccc(-c3nc4ccccc4[nH]3)cn2)s1,104,13,-4.0,i,0.91,/,/
O=C(NCCCN1CCC(Cc2ccccc2)CC1)C1CCN(S(=O)(=O)N2CCC3(CC2)OCCO3)CC1,97,-8,/,i,1,/,/
O=C(CCCOc1ccccc1)NC(=S)Nc1ccccc1,98,13,/,i,0.94,/,/
CC1(C)CC2(CC(c3ccccc3)Oc3cc(O)ccc32)NC(=S)N1 (stereo unspecified),260,-11,-0.9,i,1.1,-40,61
CCOC(=O)C(=CNc1ccc(OC)cc1[N+](=O)[O-])C(=O)OCC,97,/,/,i,0.92,/,/
NS(=O)(=O)c1ccc(CCNC(=O)c2ccc(S(=O)(=O)N3CCCCC3)cc2)cc1,99,0,-1.1,i,0.97,/,/
CC(C(=O)NC1CCCCCC1)N(c1ccccc1)S(C)(=O)=O (stereo unspecified),88,2,-3.7,i,1,-15,71
O=C1/C(=C/c2ccco2)Cc2ccccc21,103,-4,-1.7,i,1,17,149
COc1ccc(NC(=O)c2ccco2)cc1NC(=O)c1ccco1,76,-8,-1.3,i,0.92,/,/

# Two entries drawn at random from those above:
SMILES,RGS16-Gao,PKD1 kinase inh,GALR2 ag,HSV augment,HSV augment primary fold,INS promoter inh,INS promoter inh cell count
CCc1nnc(NC(=O)CSc2ccc(-c3nc4ccccc4[nH]3)cn2)s1,104,13,-4.0,i,0.91,/,/
CC1(C)CC2(CC(c3ccccc3)Oc3cc(O)ccc32)NC(=S)N1 (stereo unspecified),260,-11,-0.9,i,1.1,-40,61

# More records follow:
SMILES,RGS16-Gao,PKD1 kinase inh,GALR2 ag,HSV augment,HSV augment primary fold,INS promoter inh,INS promoter inh cell count
CC(C)=CCC/C(C)=C/COc1ccc2ccc(=O)oc2c1,104,1,/,i,1.2,/,/
Cc1ccc(NC(=O)CCC(=O)NNC(=O)CCc2ccccc2)c(C)c1,101,-3,/,i,0.89,33,104
O=S(=O)(Cc1ccccc1Cl)N1CCN(Cc2ccc3c(c2)OCO3)CC1,95,-12,-1.1,i,1.1,-3,85
O=C(O)c1cccc(S(=O)(=O)Nc2cccc(S(=O)(=O)N3CCCCCC3)c2)c1,95,2,/,i,0.87,0,101
CC(=O)Nc1ccc(-c2csc(Nc3ncccn3)n2)cc1,106,5,/,i,0.92,/,/
COC(=O)/C(C#N)=C/c1c(Oc2cc(C)cc(C)c2)nc2ccccn2c1=O,102,/,/,i,0.89,/,/
COc1ccc(CCNc2ccc(C(CC(N)=O)NC(=O)Cc3ccc(Br)cc3)cc2[N+](=O)[O-])cc1 (stereo unspecified),99,/,/,i,0.8,/,/
COc1ccc(NC(=O)CCC(=O)c2cccs2)cc1S(=O)(=O)Nc1ccccc1Cl,107,-13,0.3,i,0.96,-10,136
COc1ccc(N(CC(=O)NCC2CCCO2)C(=O)CCC(=O)Nc2nccs2)cc1 (stereo unspecified),70,-2,-2.9,i,0.95,-10,18
CCOC(=O)c1nc(S(C)(=O)=O)ncc1Cl,92,-3,-2.1,i,0.92,/,/
Cc1[nH]ccc(=O)c1OCc1ccccc1,105,-11,-0.9,i,0.83,-29,124
O=C(c1cccs1)N1CCC(c2nc3c(nnn3Cc3ccccc3)c(=O)[nH]2)CC1,102,6,-2.0,i,0.92,-9,89
CCOC(=O)NC1(C(F)(F)F)C(=O)N(Cc2ccccn2)C2=C1C(=O)CC(C)(C)C2 (stereo unspecified),100,-18,-2.5,i,0.91,45,76
CC(=O)Nc1ccc(/C=N\NC(=O)CNS(=O)(=O)c2ccc([N+](=O)[O-])cc2)cc1,103,3,/,i,0.87,/,/
Cc1ccc(NC(=S)NCCC(c2ccccc2)c2ccccc2)c(C)c1,98,-1,-0.5,?,/,-4,109
O=C(COC(=O)c1ccc([N+](=O)[O-])o1)Nc1cccc2ccccc12,101,-4,/,i,0.96,/,/
COc1ccc(C2C(C#N)=C(N)Oc3c2sc2nc(C)cc(C)c32)cc1 (stereo unspecified),187*[activator],-8,-1.7,i,1,-4,119
